Assay outcomes as filed in PubChem BioAssay.
RanGTP-Impb inh = disruptors of Ran-importin-beta complex formation – biochemical, FRET, CFP-Ran, YFP-importin-beta, homogeneous, primary screen; cell-free CFP-Ran/YFP-importin-beta FRET ratio; inhibition, % (no concentration beside the values); 1.1% of 300,000 active; AID 2216;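 active = most replicates above 15%; inconclusive = exactly half above 15%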;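 note: 0% = DMSO wells and 100% = Ran loaded with GDP instead of GTP; wells of about 40 µL received 100 nL stock; the first replicate is given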
MLL AF4-AF9 inh = inhibitors of human MLL-AF4/AF9 interaction; P42568; 0.47% of 350,000 active; inhibition, % at 10 µM; AlphaScreen, biotin-AF4 peptide binding to FLAG-AF9;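 active = every replicate reaching a set inhibition limit, whatever the replicate mean, cut at about 25% in these data; inconclusive = mean inhibition reaches that limit but some replicates miss it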;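 note: 0% = plate neutral control median and 100% = total signal loss; the record names both 10 and 1 µM as test concentration; the first replicate is given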
Target sequence (P42568 whole entry, looked up): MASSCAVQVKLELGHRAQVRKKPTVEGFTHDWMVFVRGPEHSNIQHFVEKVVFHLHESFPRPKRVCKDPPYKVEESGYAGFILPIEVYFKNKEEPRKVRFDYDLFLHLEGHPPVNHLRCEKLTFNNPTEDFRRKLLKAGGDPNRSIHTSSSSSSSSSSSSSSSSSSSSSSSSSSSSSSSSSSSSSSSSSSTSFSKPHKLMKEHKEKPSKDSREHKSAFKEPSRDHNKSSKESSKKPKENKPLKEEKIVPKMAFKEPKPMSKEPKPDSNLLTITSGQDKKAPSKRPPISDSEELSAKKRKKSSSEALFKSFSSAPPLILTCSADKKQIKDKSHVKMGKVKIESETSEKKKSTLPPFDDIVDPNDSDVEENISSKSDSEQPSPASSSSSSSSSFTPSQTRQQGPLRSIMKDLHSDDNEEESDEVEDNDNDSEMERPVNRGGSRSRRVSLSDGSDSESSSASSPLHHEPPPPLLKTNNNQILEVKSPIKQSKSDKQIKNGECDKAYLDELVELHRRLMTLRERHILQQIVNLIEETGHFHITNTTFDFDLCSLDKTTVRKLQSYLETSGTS
Bfl-1 A1 inh = inhibitors of the anti-apoptotic protein A1, read as caspase activation. MEF A1-2A-BIM cells, Caspase-Glo 3/7 luminescence, 3 h; percent of clofoctol response, vehicle zero. caspase activation, % (concentration not given with the values). 0.066% of 330,000 active;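 active = over half of replicate activation scores above 10%, or exactly half above 10 with the replicate mean above 10; inconclusive = replicate mean below 10 yet half the replicates above 10; inactive = over half of replicates below 10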;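 note: wells of about 30 µL received 50 nL stock; many hits fall short of the cut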
rRNA inh HTS = selective bacterial rRNA inhibition in E. coli | E. coli WT GFP vs humanized-ribosome RFP mutants, fluorescence, 24 h; stronger effect = lower value; DMSO median 0, no signal -100 | GFP signal change (wild-type ribosome), % (test concentration not listed) | 1.6% of 350,000 active | AID 720706;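 active = significant combined selectivity score with lowered wild-type GFP, culture density cut under 30%, mutant RFP and density less affected; inactive = any of these conditions unmet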; note: one replicate is shown; some compounds called inactive have numbers as strong as hits
Calb FLC = C. albicans growth modulation with fluconazole; C. albicans CaCi-2 (fluconazole-resistant clinical isolate) + fluconazole, Alamar Blue growth, 48 h; growth inhibition, % (no concentration beside the values); 0.57% of 300,000 active; AID 1979;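 active = most replicates above 75%; inconclusive = exactly half above 75%; inactive = most below 75%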;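 note: all wells also contain fluconazole at 8 µg/ml as a sub-toxic cotreatment; 0% = median of DMSO wells and 100% = median of geldanamycin control wells; wells of about 8 µL received 7.5 nL stock; the first replicate is given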
Vif TR-FRET = inhibitors of Vif binding to APOBEC3G peptide, primary screen, biochemical, TR-FRET, GST-Vif 1-94, biotin-A3G peptide, dose response retest (AID 1117319); TR-FRET GST-Vif / biotin-A3G peptide binding; higher % means a stronger effect; test concentration not given here; strong numbers were not always called active; one-dose inhibition, %; IC50 in µM for titrated hits; 0.57% of 260,000 active;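 active = above the screen mean plus three standard deviations and confirmed in dose response; inconclusive = results disagree or hit not tested in dose response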;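 note: Vif residues 1-94 fused to GST binding biotinylated APOBEC3G peptide 110-148; 0% = full assay without inhibitor and 100% = GST in place of GST-Vif; retest series ran down from 100 µM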
T cruzi repl = T. cruzi replication inhibition; T. cruzi beta-gal in NIH3T3, luminescence, 90 h; inhibition, % (no concentration beside the values); 1.4% of 300,000 active; AID 1885;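 active = mean inhibition across valid replicates above about 55%, limit read from the data; inconclusive = mean below that limit but half or more replicates reach it; inactive = mean below it, under half of replicates reach it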;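 note: signal also drops with host cell toxicity which is not excluded here; 0% = plate median of DMSO wells and 100% = zero luminescence signal; higher percent means less beta-gal luminescence so fewer parasites; stock transfer was 50 nL into about 50 µL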
Beta apoptosis = beta cell apoptosis inhibition; INS-1E cytokine-induced death, ATP luminescence, 48 h; percent of positive-control rescue, neutral wells zero; protection from apoptosis, % (concentration not given with the values); 0.8% of 300,000 active;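 active = all replicates at 75% or more, or half of them and the mean; inconclusive = half reach 75% but not the mean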;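 note: 0% = cytokine-treated negative control wells and 100% = positive control rescue; higher means more ATP so stronger rescue from cytokine killing; wells of about 40 µL received 100 nL stock; the first replicate is given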
rRNA inh HTS OD600 = further read-out of rRNA inh HTS, marked with its call; OD600 change, %; measured here: OD600 growth;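 optical density of the mix in the first replicate; 0 = DMSO median and -100 = no signal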
rRNA inh HTS RFP = further read-out of rRNA inh HTS, marked with its call; RFP signal change, %; measured here: RFP humanized mutant strains;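 first replicate; 0 = DMSO median and -100 = no signal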
* marks the source's active call; other numbers are inactive results; u = inconclusive; x = not tested or not shown. This is a subset. The share of hits here may be higher or lower than overall.

SMILES	RanGTP-Impb inh	MLL AF4-AF9 inh	Bfl-1 A1 inh	rRNA inh HTS	rRNA inh HTS OD600	rRNA inh HTS RFP	Calb FLC	Vif TR-FRET	T cruzi repl	Beta apoptosis
COc1ccc(C(=O)NN/C(C)=C/C(=O)C(F)(F)C(F)(F)C(F)(F)F)cc1	2.1	3.6	-0.5	x	x	x	94*	-1%	2	79*
COC(=O)/C(C(C)=O)=C(\C=C\N(C)C)N(C)C	1.8	-2.6	-0.1	9	8	2.4	5	1%	-8	-8
Cc1csc(NC(=O)CSc2nnc(-c3ccoc3C)n2CCc2ccccc2)n1	u	x	0.5	x	x	x	5	-6%	11	1
Cc1ccc(OCCC(=O)OCC(=O)C(C)(C)C)cc1	-1.2	x	0.6	x	x	x	1	-4%	-6	-3
C/C(O)=C/c1nc2ccccc2[nH]c1=O	5.2	-6.2	0.2	-7	5	0.6	2	15%	-3	-2
CCOc1ccccc1OCCCNCc1ccccc1	5.5	-8.3	0.0	14	8	3.6	-6	x	18	-5
COc1ccc(S(=O)(=O)N2CCC(C(=O)NCc3cccc(OC)c3)CC2)cc1	2.8	x	u	x	x	x	-2	2%	-11	-1
CCOn1c(=O)c(-c2ccc(Cl)cc2)[n+]([O-])c2ccccc21	0.2	x	0.6	x	x	x	35	u	-5	2
CC(C)(C)NC(=O)/C(=C\C=C\c1ccccc1)NC(=O)c1ccc([N+](=O)[O-])cc1	-2.1	-0.2	0.5	7	12	-1.6	21	-2%	15	1
COC(=O)CCCC1=CC2=C(c3ccccc3)C(=O)C(C)(OC(=O)C3CCCC3)C(=O)C2=CN1CCc1ccccn1 (stereo unspecified)	-1.1	3.8	0.6	1	-6	14	7	x	3	5
CCOC(=O)c1c(NC(=O)C2=C(C)NC(=S)NC2c2ccccc2C(F)(F)F)sc(C)c1C (stereo unspecified)	4.6	x	0.3	x	x	x	12	-13%	62*	4
COCc1nnc(NC(=O)c2ccc(S(=O)(=O)N(CC(C)C)CC(C)C)cc2)o1	3.1	2.5	0.7	-36	-60	-8.3	-10	-8%	-37	4
Cc1onc(-c2ccccc2)c1C(=O)N1CCN(C(=O)c2ccco2)CC1	u	x	0.0	x	x	x	-2	u	4	0
Cc1ccc(CN2CCC(CNS(=O)(=O)c3ccc(-c4ccc(=O)[nH]n4)s3)CC2)cc1	1.9	2.4	0.9	13	12	3.9	1	-5%	6	2
Cn1ccc(C(=O)Nc2ccc(Br)cc2Br)n1	1.0	x	-2.6	x	x	x	1	-5%	-11	-9
Nc1c(C(=O)CSc2nnc(N3CCOCC3)n2-c2cccc(F)c2)c(=O)[nH]c(=O)n1C1CC1	x	-2.7	3.2	8	4	-1.3	x	10%	x	-1
COc1ccc(Cl)cc1N(CC(=O)N1CCN(Cc2ccccc2)CC1)S(C)(=O)=O	-4.2	x	1.7	x	x	x	-7	1%	-1	-2
Cc1ccc(C(=O)CCC(=O)OCC(=O)Nc2c(C)nn(-c3ccccc3)c2C)cc1	2.3	-1.1	-0.2	0	-5	2.1	-1	-6%	-4	-2
Cc1cc([N+](=O)[O-])nn1CC(=O)Nc1cccc2nonc12	5.4	3.3	0.3	21	9	0.3	26	19%	-14	x
CC(C)(CNC(=O)C1CCCC1)CNC(=O)C1CCCC1	11	x	0.3	x	x	x	-15	4%	-2	1
CCN1C(=O)N[C@@H](c2ccc(Br)cc2)C(C(C)=O)=C1C	-0.3	-5.0	0.6	1	11	1.5	-3	x	-13	1
COc1ccc(-n2ncc3c2CC(C)(C)CC3NC(=O)CN2CCOC2=O)cc1 (stereo unspecified)	6.9	-11	-0.9	7	1	-2.2	8	x	-7	-16
O=C(CSc1ncn(-c2ccccc2)n1)Nc1nc2c(s1)CCCC2	2.6	x	-0.3	x	x	x	21	14%	9	-3
COCCNC(=O)c1ccc2c(Cl)c3c(nc2c1)CCC3	1.6	-2.9	-2.2	-8	5	-2.3	-3	-5%	2	4
Cc1cc(C(=O)CCl)c(C)n1CC1COc2ccccc2O1 (stereo unspecified)	-1.1	6.3	0.3	9	15	11	-17	10%	60*	-6

Some values from the list.
For RanGTP-Impb inh, Cc1ccc(OCCC(=O)OCC(=O)C(C)(C)C)cc1 has -1.2
For RanGTP-Impb inh, Cc1ccc(C(=O)CCC(=O)OCC(=O)Nc2c(C)nn(-c3ccccc3)c2C)cc1 has 2.3

(further entries)
SMILES	RanGTP-Impb inh	MLL AF4-AF9 inh	Bfl-1 A1 inh	rRNA inh HTS	rRNA inh HTS OD600	rRNA inh HTS RFP	Calb FLC	Vif TR-FRET	T cruzi repl	Beta apoptosis
C/C(=N\O)c1sc(-c2ccccc2)nc1C	0.4	2.5	x	1	-1	-1.2	-5	-5%	2	x
O=S(=O)(c1cccs1)N1CCN(CCc2ccccc2)CC1	x	-0.2	-0.4	-6	-6	1.4	x	x	-6	-3
COc1ccc(N2C(=O)CC(Sc3nc4ccccc4s3)C2=O)cc1 (stereo unspecified)	2.8	-19	-0.3	16	23	1.2	2	7%	25	-2
Cc1cccc(CSCc2nnc(N)s2)c1	-0.3	x	0.9	x	x	x	-1	18%	-12	-2
CCN(CC)S(=O)(=O)c1cc(C)c(C)cc1Br	0.1	x	-0.3	x	x	x	-4	15%	-2	1
COc1ccc(C(C)(C)NC(=O)C2CCC(=O)N(C3CCCC3)C2)cc1OC (stereo unspecified)	-4.9	1.3	0.0	2	3	-0.6	7	x	0	-10
COC(=O)c1ccccc1NC(=O)CN(c1cc(OC)ccc1OC)S(C)(=O)=O	-0.2	x	0.3	x	x	x	-11	9%	15	x
O=C(O)C1CCN(c2ccccc2[N+](=O)[O-])CC1	0.9	-2.4	0.8	-1	-11	-1.3	-2	x	-10	3
COc1ccc(CCC(C)NC(=O)Cc2ccc(OC)c(OC)c2)c(OC)c1 (stereo unspecified)	4.9	-3.4	-0.6	-1	-5	3.1	1	-3%	10	-4
NC(=O)CC(NC(=O)c1ccc(Br)cc1)c1ccc(N2CCC(Cc3ccccc3)CC2)c([N+](=O)[O-])c1 (stereo unspecified)	-1.8	-1.0	1.2	13	23	2.5	-28	x	-8	-66
COc1cccc(CNC(=O)COc2ccc(C(=O)c3ccccc3)cc2)c1	6.6	-0.6	-2.2	0	-26	6.1	29	x	-1	-9
CCn1cc(C(=O)O)c(=O)c2cc(F)c(N3CCN(C(=S)NC(=O)c4ccc(Br)cc4)CC3)cc21	u	-1.2	-0.4	-52	-81	-16	-23	-1%	-16	6
CC(OC(=O)CCN=C1NS(=O)(=O)c2ccccc21)C(=O)Nc1ccc(S(N)(=O)=O)cc1 (stereo unspecified)	x	-2.0	-2.2	-1	-5	1.7	x	x	x	-4
CC(=O)N1CCc2cc(S(=O)(=O)NC(Cc3ccccc3)C(=O)Nc3cc(C)ccn3)ccc21 (stereo unspecified)	1.7	-0.9	0.6	4	10	-0.2	8	1%	-9	-5
NN1C(=O)c2cccc3c(C(=O)O)ccc(c23)C1=O	u	x	-0.6	x	x	x	-4	18%	-8	-7
Cc1ccc2c(C)c(C(=O)Nc3c(C)n(C)n(-c4ccccc4)c3=O)oc2c1	-1.3	x	1.5	x	x	x	0	17%	8	2
Cc1ccc(CN2CCS(=O)(=O)CC2)o1	-0.3	-0.5	1.3	11	15	3.5	9	-4%	-4	-7
COc1ccc(CCNC(=O)C(=O)NCC2CCNCC2)cc1OC	4.4	0.6	0.8	7	7	-2.8	-4	-1%	-11	-6
CCO/N=C/C1=C(O)C(C(=O)OC)C(C)(C)CC1=O (stereo unspecified)	0.6	0.9	-0.2	3	8	1.1	9	-6%	-6	-3
Cc1cccc(CN2CCN(Cc3nc4c(s3)CCCC4)CC2CCO)n1 (stereo unspecified)	0.4	0.1	0.4	10	5	-1.3	28	-4%	16	-5
O=S(=O)(c1ccc(Br)cc1)N1CCN(Cc2ccco2)CC1	x	3.7	-0.1	-4	-8	-0.2	x	x	1	3
CC(Oc1ccc2c(-c3ccccc3)cc(=O)oc2c1)C(=O)N1CCOCC1 (stereo unspecified)	x	1.5	-1.1	3	-3	0.4	x	x	x	4
CN(C)c1ccc(C2N(C(=O)N3CCOCC3)CCN2S(=O)(=O)c2ccccc2)cc1 (stereo unspecified)	-0.3	x	-0.8	x	x	x	-6	-2%	-12	2
FC(c1nc2ccccc2[nH]1)C(F)(F)F (stereo unspecified)	1.6	-2.1	0.0	8	-6	-0.2	7	8%	-11	0
O=C(O)c1ccccc1Sc1c([N+](=O)[O-])cc(C(F)(F)F)cc1[N+](=O)[O-]	-0.5	3.1	-0.2	9	-5	-1.7	-18	u	21	5

More records.
SMILES	RanGTP-Impb inh	MLL AF4-AF9 inh	Bfl-1 A1 inh	rRNA inh HTS	rRNA inh HTS OD600	rRNA inh HTS RFP	Calb FLC	Vif TR-FRET	T cruzi repl	Beta apoptosis
CC(OC(=O)C1CCCO1)C(=O)NC1CCCC1 (stereo unspecified)	u	x	-1.8	x	x	x	22	-6%	-16	-4
CCCc1ccc2oc(C(=O)N3CCNC(=O)C3CC(=O)OC)c(C)c2c1 (stereo unspecified)	-1.3	-4.4	0.5	-3	-1	-2.2	-7	14%	0	x
CCNC(=O)C(=O)Nc1ccc2c(c1)N(S(=O)(=O)c1cccs1)CCC2	1.1	-1.4	1.4	-18	-16	2.6	5	7%	-2	-1
O=C(NC1CCCc2ccccc21)C1CCN(S(=O)(=O)c2ccccc2F)CC1 (stereo unspecified)	-2.7	2.5	0.9	-22	-19	0.4	-4	x	5	4
COCCn1c(N)c(NCc2ccccc2)c(=O)[nH]c1=O	10.0	-0.6	-0.1	12	14	0.5	-1	-3%	5	-6
CCCCc1ccc(N=N/C(C(=O)Nc2ccccc2OC)=C(/C)O)cc1	-0.8	1.7	-0.1	-43	-67	-29	-7	-2%	7	5

Record cards, from the list above. Order of screens: RanGTP-Impb inh | MLL AF4-AF9 inh | Bfl-1 A1 inh | rRNA inh HTS | rRNA inh HTS OD600 | rRNA inh HTS RFP | Calb FLC | Vif TR-FRET | T cruzi repl | Beta apoptosis
O=C(NC1CCCc2ccccc21)C1CCN(S(=O)(=O)c2ccccc2F)CC1 (stereo unspecified) as listed: -2.7 | 2.5 | 0.9 | -22 | -19 | 0.4 | -4 | x | 5 | 4
CCCc1ccc2oc(C(=O)N3CCNC(=O)C3CC(=O)OC)c(C)c2c1 (stereo unspecified) as listed: -1.3 | -4.4 | 0.5 | -3 | -1 | -2.2 | -7 | 14% | 0 | x
CCCCc1ccc(N=N/C(C(=O)Nc2ccccc2OC)=C(/C)O)cc1 as listed: -0.8 | 1.7 | -0.1 | -43 | -67 | -29 | -7 | -2% | 7 | 5
CCNC(=O)C(=O)Nc1ccc2c(c1)N(S(=O)(=O)c1cccs1)CCC2 as listed: 1.1 | -1.4 | 1.4 | -18 | -16 | 2.6 | 5 | 7% | -2 | -1
CC(OC(=O)C1CCCO1)C(=O)NC1CCCC1 (stereo unspecified) as listed: u | x | -1.8 | x | x | x | 22 | -6% | -16 | -4
